# E coli growth: inhibitors of Escherichia coli growth | OD600, 23 h; stronger effect = lower value | OD600 absorbance (no concentration beside the values) | actives 0.21% (n = 330,000);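 active = OD600 absorbance below the run mean of sample wells minus 3.6 SD, in any replicate, cut at about 0.56 in these data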;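 also: stock transfer was 300 nL into about 60 µL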
# HNF4A DNA FP: change in binding of human HNF4 alpha to DNA; P41235; HNF4a-FITC DNA binding, fluorescence polarization, 1 h; activity change, % at 10 µM; actives 0.3% (n = 360,000); AID 1224865; in the data active = activity change above about 30%, passing the limit was not always enough;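 also: controls were the assay level and a saturating level of protein; the project sought stronger binding though the title names inhibitors; some compounds called inactive have numbers as strong as hits; positive values seem to mean higher polarization but the record does not say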
# Target sequence (P41235 whole entry, looked up): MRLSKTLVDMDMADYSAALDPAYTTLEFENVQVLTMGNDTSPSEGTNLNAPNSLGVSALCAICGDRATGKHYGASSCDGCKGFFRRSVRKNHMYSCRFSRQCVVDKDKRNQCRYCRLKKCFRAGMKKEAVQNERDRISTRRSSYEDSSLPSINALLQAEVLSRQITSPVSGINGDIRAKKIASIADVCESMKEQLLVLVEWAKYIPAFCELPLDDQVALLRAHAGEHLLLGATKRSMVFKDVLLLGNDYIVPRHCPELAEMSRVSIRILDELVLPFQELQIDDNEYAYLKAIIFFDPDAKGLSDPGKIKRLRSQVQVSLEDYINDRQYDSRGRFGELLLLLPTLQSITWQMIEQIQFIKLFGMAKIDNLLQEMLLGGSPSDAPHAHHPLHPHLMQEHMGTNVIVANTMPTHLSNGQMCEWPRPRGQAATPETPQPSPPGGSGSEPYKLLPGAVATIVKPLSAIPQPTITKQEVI
# ALR H2O2 inh: human ALR oxidase inhibition via reduced H2O2. inhibition, % (no concentration beside the values). actives 3.8% (n = 290,000). P55789. purified ALR, DTT oxidation, H2O2 HRP-luminol luminescence;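 active = mean and each replicate at 75% or more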;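 also: stock transfer was 7.5 nL into about 7.5 µL; 0% = neutral wells and 100% = wells with inactivated enzyme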
# Target sequence (P55789 whole entry, looked up): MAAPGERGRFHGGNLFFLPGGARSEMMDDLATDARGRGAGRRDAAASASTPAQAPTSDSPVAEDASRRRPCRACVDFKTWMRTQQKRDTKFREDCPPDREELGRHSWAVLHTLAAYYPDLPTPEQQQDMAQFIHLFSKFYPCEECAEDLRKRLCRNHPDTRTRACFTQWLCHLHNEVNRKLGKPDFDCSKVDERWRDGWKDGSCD
# LANA-H2B inh: blocks KSHV LANA binding to histone H2A/H2B; Q9QR71; cell-free LANA-H2A/H2B peptide, fluorescence polarization; actives 0.6% (n = 320,000); inhibition, % (concentration not given with the values); AID 2629; in the data active = inhibition mostly above about 10%, no sharp cut-off; inactive = mostly below about 6.7%;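 also: stock transfer was 7.5 nL into about 10 µL; 0% = median of vehicle wells and 100% = median of positive control wells; one replicate is shown; the record names a cut of 25% in any replicate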
# B2AR ag: human beta-2 adrenergic receptor agonism by FAP; AID 504454; actives 0.43% (n = 340,000); Am2.2-beta2AR cells, FAP receptor internalization, flow cytometry; reference of the scale not given here; response, % (test concentration not listed);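 active = response above a set limit, near 3 SD of response in nonfluorescent compounds, cut at about 42% in these data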;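 also: stock transfer was 100 nL into about 11 µL; a reference agonist was the positive control; negative values mostly stem from fluorescent compounds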
# FGF22 binding: binders of recombinant human FGF22 by thermal shift. SYPRO orange fluorescence; percent of sucrose octasulfate shift, DMSO zero. calls only at 9.99 µM. actives 1.5% (n = 340,000);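 active = melting point raised past a set limit in the mean and every replicate; three in four hits are not shown here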
# UCH37 inh: blocks the human deubiquitinase UCH37. AID 588478. actives 0.33% (n = 330,000). purified proteasome/UCH37, Ub-AMC cleavage fluorescence. Q9Y5K5. inhibition, % (test concentration not listed);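 active = mean of two replicates above 20%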;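 also: 0% = compound-free wells with enzyme and 100% = wells lacking proteasome; stock transfer was 100 nL into about 20 µL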
# Target sequence (Q9Y5K5 whole entry, looked up): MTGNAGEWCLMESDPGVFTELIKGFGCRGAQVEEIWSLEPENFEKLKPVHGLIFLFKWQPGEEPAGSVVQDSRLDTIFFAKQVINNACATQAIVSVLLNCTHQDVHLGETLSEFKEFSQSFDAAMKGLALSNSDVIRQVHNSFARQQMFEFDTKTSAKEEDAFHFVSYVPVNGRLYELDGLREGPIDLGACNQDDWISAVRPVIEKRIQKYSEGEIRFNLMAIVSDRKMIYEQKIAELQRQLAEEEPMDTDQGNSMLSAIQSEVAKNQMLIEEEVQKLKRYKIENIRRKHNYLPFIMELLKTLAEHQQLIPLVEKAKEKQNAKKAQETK
#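 Signal – fluorescence, ex 355 nm, em 460 nm · System – Proteasome-bound UCH37 · Input – 0.15 nM proteasome as dispensed · Timing – 30 min preincubation with enzyme, 25 min cleavage at room temperature · Read-out basis – percent inhibition of cleavage signal versus uninhibited and no-proteasome wells · Medium – Tris-HCl pH 7.4 with ATP-MgCl2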
# Active calls of the source: *; i = inactive; . = no result given; & = joins results of further samples. A portion of the library (hit frequency here may not be typical).
E coli growth,HNF4A DNA FP,SMILES,ALR H2O2 inh,LANA-H2B inh,B2AR ag,FGF22 binding,UCH37 inh
0.66,2.3,CN(CC(=O)NCCc1ccccc1)S(=O)(=O)c1ccccc1,-9.1,4.1,4.0,i,0.3
0.753,1.4,CC(C)(O)c1ccc2c(c1)CCC1C(C)(C(=O)O)CCCC21C (centres undefined),-19.6,3.1,7.2,i,-1.9
.,-6.5,CCOc1cccc(/C=N/Nc2ccc(S(=O)(=O)N(CC)CC)cn2)c1O,.,-1.9,10.7,i,.
.,-0.2,O=C(CSC1=NCCN1)Nc1cccc(C(F)(F)F)c1,99.5*,3.7,2.0,i,.
0.625,1.4,COc1ccccc1CCC(=O)Nc1ccc(S(=O)(=O)Nc2cc(C)nc(C)n2)cc1,54.5,-2.8,-5.5,i,-0.5
0.67,-1.3,C[C@H](NC(=O)OC(C)(C)C)c1nnc(SCC(=O)c2ccc(Cl)cc2)o1,.,1.2,1.2,.,4.3
0.682,-1.7,COc1ccc(N(CC(=O)NCc2ccco2)S(=O)(=O)c2ccc(OC)c(OC)c2)cc1,-4.7,-9.5,-1.6,.,3.3
0.667,0.2,CCOC(=O)c1cccnc1SC(CC)C(=O)N1CCOCC1 (centres undefined),-7.1,2.5,2.9,.,0.9
0.623,-1.5,CCCOc1ccc(-c2nc(N3CCN(C)CC3)c3ccccc3n2)cc1,-19.7,-2.3,9.7,i,-30.8
0.734,-3.4,Cc1ccc(O)c(C(CC(=O)NCc2ccco2)c2ccccc2)c1 (centres undefined),42.2,0.4,-3.1,i,3.2
.,-1.0,O=C1CC(NNc2ccccc2)C(=O)N1c1cccc(Cl)c1 (centres undefined),98.0*,-4.5,12.5,.,-0.8
0.779,0.8,C=CCNc1nc2c(c(=O)[nH]c(=O)n2C)n1Cc1cccc(C)c1,.,.,-6.7,i,5.7
0.676,0.7,CCC(=O)Nc1ccc(NC(=O)/C=C/c2ccc(Cl)cc2)cc1,.,-2.1,-2.0,i,2.2
0.697,0.3,CC1CCN(Cc2c(O)ccc3c(=O)c(-c4nc5ccccc5s4)c(N)oc23)CC1,3.4,-0.8,8.4,i,-70.3
0.709,4.1,Cc1cccc(NS(=O)(=O)c2ccc(C(=O)N3CCN(c4ccccc4O)CC3)cc2)c1C,2.8,-0.2,19.8,i,1.5
0.701,-3.6,O=C1CC2(CCN(C(=O)c3ccccc3[N+](=O)[O-])CC2)Oc2ccccc21,-13.7,-0.8,-2.9,i,-12.8
0.646,2.2,CC(=O)Nc1ccc(N/C=C/C(=O)c2ccccc2)cc1,2.6,-1.8,1.7,i,8.5
0.628,0.8,O=C1CSC(c2cccnc2)N1c1ccccc1 (centres undefined),96.2*,-0.8,1.7,i,2.0
0.677,0.7,O=C1CCCc2nn(-c3ccccc3)nc21,.,-0.7,9.8,.,0.6
0.721,0.1,CC(=O)Oc1c2occc2cc2ccc(=O)oc12,-23.0,7.1,-1.4,.,-0.7
0.598,4.5,CC(C)=CCN1CCN(Cc2cccc3nonc23)CC1CCO (centres undefined),-12.7,-7.0,-7.0,i,1.7
0.738,3.9,O=[N+]([O-])c1ccc(C[n+]2cccc3ccccc32)cc1,-25.6,-0.6,-7.2,i,1.9
0.737,0.3,O=C(CSc1nnc(-c2ccc(F)cc2)c2ccccc12)Nc1ccccc1,99.4*,-4.9,-0.3,i,1.0
0.643,-0.8,O=C(COc1ccc(Cl)cc1Cl)NCCCCc1ccccc1,-4.3,3.5,9.2,.,3.8
0.697,2.6,C=CCC1NS(=O)(=O)OC(COC)C1C (centres undefined),-16.4,1.7,3.0,i,0.6
0.64,2.3,O=C(Nc1ccc2[nH]c(=O)[nH]c2c1)c1ccc(Cl)c(Cl)c1,-4.3,2.1,0.3,.,-9.7
0.649,-2.8,COc1ccc(N2CCC(CNC(=S)Nc3c(C)cc(C)cc3C)C2)cc1 (centres undefined),38.3,2.4,13.1,i,2.3
0.634,2.3,Cc1ccc(-n2c(=S)sc3c(=O)n(-c4ccc(F)cc4)c(SCC(=O)O)nc32)cc1C,.,-3.6,1.5,i,7.3
.,4.8,OCC[C@H]1C[C@H](O)[C@@H](O)[C@]2(CCc3ccccc3CO2)O1,-4.5,-3.2,-0.1,i,1.1
0.691,-1.0,O=C(NC(=S)Nc1ccc(S(=O)(=O)NC2CCCCC2)cc1)c1cccs1,2.3,5.3,-6.5,i,2.2
0.645,-1.0,CCCCn1c(N)c(N(C)C(=O)c2cccc(-n3cnnn3)c2)c(=O)[nH]c1=O,-0.3,-1.6,-4.1,i,-1.2
0.675,-0.1,Nc1cc[n+](CC(=O)c2ccc3c(c2)OCCO3)cc1,-1.3,-0.9,0.2,i,-0.6
0.717,-0.1,Cc1nc(CCNC(=O)Cc2ccc(F)cc2)cs1,7.4,-5.6,-4.0,i,2.3
0.653,1.4,O=C(c1cccc(Br)c1)N1CCN(S(=O)(=O)N2CCOCC2)CC1,-4.0,-1.6,2.0,.,3.9
0.739,0.6,O=C1CCCC2=C1C1c3ccccc3C(=O)N1c1ccc(C(=O)c3ccccc3)cc1N2 (centres undefined),5.2,1.6,1.1,.,3.0
0.669,4.5,Cc1ccc(S(=O)(=O)NNC(=O)c2cccs2)c(C)c1,58.9,5.5,0.9,i,1.0
0.713,3.4,CC1CN(c2nc3ccccc3cc2-c2ccccc2)CC(C)O1 (centres undefined),-2.2,-2.4,-2.9,.,-44.1
0.681,-1.7,Cc1ccc(NC(=O)CN(C)CC(=O)Nc2ccc(N3CCOCC3)cc2)c([N+](=O)[O-])c1,18.9,-1.8,0.3,.,2.1
0.71,3.7,COc1ccc(CN(C)C(=O)/C=C/c2ccc(S(=O)(=O)N3CCCCCC3)cc2)cc1,-2.5,-0.2,9.7,i,2.5
0.697,5.4,COc1cccc(CC(NC(C)=O)C(=O)NC2CCN(S(=O)(=O)c3ccc(NC(C)=O)cc3)CC2)c1 (centres undefined),-0.9,-0.9,6.8,i,-0.2
0.701,-0.1,O=C(NC1CCCCCC1)c1ccc(CS(=O)(=O)Cc2ccccc2F)o1,-2.7,2.4,-0.1,i,3.4
0.682,1.0,COc1ccc(CN2CCNC(=O)C2CC(=O)N2CCCN(C(C)=O)CC2)cc1OC (centres undefined),-86.3,-0.4,2.0,i,-0.4
0.741,0.1,CN(CC(=O)Nc1ccccc1Cl)C(=O)CSc1ncc(C(F)(F)F)cc1Cl,-3.3,2.0,-17.5,.,3.5
.,3.1,CCC(=O)O[C@]1(C(=O)CCl)[C@@H](C)C[C@H]2[C@@H]3CCC4=CC(=O)C=C[C@]4(C)[C@@]3(F)[C@@H](O)C[C@@]21C,3.8,2.2&-32.6,2.9,i,2.5
.,2.7,CCCCCSc1nnc2c(n1)OC(c1cccn1C)N(C(C)=O)c1ccccc1-2 (centres undefined),1.4,-2.1,2.9,.,.
0.694,18.7,COc1cc(/C=C2\C(=N)N3N=C(S(C)(=O)=O)SC3=NC2=O)ccc1OC(=O)c1ccco1,65.7,-9.9,-0.8,.,12.0
0.779,-0.2,CCN(CC)S(=O)(=O)c1cc(NC(=O)C2CCN(c3ncnc4sc(C)c(C)c34)CC2)ccc1Cl,-13.4,3.0,27.9,i,0.6
0.689,5.4,COc1cccc(-c2nc3c(c(SCC(=O)N4CCOCC4)n2)Cc2c(CO)cnc(C)c2O3)c1,36.5,4.9,19.4,.,1.2
0.698,-0.6,COC(=O)c1sc(NC(=O)CSc2nnc(C(C)C)n2C)nc1C,-2.7,10.0,-2.0,.,6.5
0.71,1.1,O=C(c1c(F)cccc1F)N1CCN(c2ccccc2F)CC1,.,1.9,4.0,.,2.6
0.657,-0.8,CCCCNc1ncnc2c1cnn2Cc1ccc(Cl)cc1,-8.6,-2.1,-2.8,i,3.1
0.687,-3.0,O=C(/C=C/c1ccc(Cl)cc1)N1CCN(c2ccccn2)CC1,-7.8,0.4,-5.1,i,-5.5
0.682,-2.9,CC(C)NC(=O)C1CCN(C(=O)c2cc3sccc3n2Cc2ccc(F)cc2)CC1,-3.7,5.0,2.5,.,2.5
0.674,-0.1,CCc1nnc(NC(=O)c2ccc(S(=O)(=O)N3CCCCC3)cc2)s1,1.0,3.6,0.0,i,1.2
0.677,-1.2,CCOc1ccc(C(=O)Nc2ccc3c(c2)OCCO3)cc1,-5.2,-0.1,-5.2,i,5.7
0.726,1.6,CC(=O)Nc1ccc(NC(=O)C2(C)CC2(Cl)Cl)cc1 (centres undefined),-10.0,2.0,0.8,i,3.0
0.67,0.1,O=C(O)c1ccc(-c2nc(-c3ccccc3Cl)cs2)cc1,0.1,-3.4,11.5,i,1.5
0.716,-3.9,Cc1c(Cc2ccccc2)c(=O)oc2c(C)c(OCC(=O)N[C@@H](Cc3ccccc3)C(=O)O)ccc12,.,-3.2,1.8,i,-74.6
0.712,1.3,Cn1c(SCC(=O)c2ccccc2)ncc(C(=O)Nc2ccccc2)c1=O,97.9*,3.5,-0.4,i,-17.1
0.681,0.7,CC(=O)c1c(C)[nH]c(C(=O)OCC(=O)Nc2cc(S(=O)(=O)N3CCCC3)ccc2Cl)c1C,2.1,1.3,-6.4,.,2.2

# (cont.)
E coli growth,HNF4A DNA FP,SMILES,ALR H2O2 inh,LANA-H2B inh,B2AR ag,FGF22 binding,UCH37 inh
0.62,0.4,CC1CCN(CC(=O)Nc2ccc(S(=O)(=O)N3CCCCC3)cc2)CC1,-16.2,-1.5,5.7,i,2.7
0.666,-0.3,COc1ccc(-c2c(C)n([O-])c3c([n+]2=O)CCCC3)c(OC)c1,-6.5,2.0,4.5,i,1.4
.,-5.1,CCOC(=O)c1c(NC(=O)C2C3C=CC(CC3)C2C(=O)O)sc(C)c1C (centres undefined),7.5,-1.1,10.1,.,.
0.703,-0.7,COc1cccc(-c2cccc(NC(=O)C3CCN(C4CCC4)CC3)c2)c1,0.0,0.1,-3.3,i,5.3
0.705,-1.8,CCOC(=O)N1CCN(C(=O)c2cn(CC)c3ccc(S(=O)(=O)N4CCOCC4)cc3c2=O)CC1,-6.0,1.2,1.4,i,4.1
0.699,3.5,Cc1ccccc1N1CC(C(=O)Nc2ccncc2)CC1=O (centres undefined),-0.8,-4.1,1.6,i,2.4
.,2.0,CC1C/C(=N\NC(=O)c2ccc(NS(=O)(=O)c3ccc(Br)cc3)cc2)CC(C)(C)C1 (centres undefined),2.0,-0.5,-6.8,i,.
0.714,0.2,O=C1CN=C(Nc2ccccc2Cl)N1c1ccccc1,-10.3,5.2,-7.7,.,-3.4
0.68,-7.0,O=C(CSC(=S)N1CCCC1)N1CCN(S(=O)(=O)c2cccc([N+](=O)[O-])c2)CC1,-6.4,3.4,1.9,i,-0.3
.,1.9,C=CCOc1ccccc1CN(C(=O)CCl)c1ccc2c(c1)OCO2,0.9,3.4,6.5,i,.
.,-3.1,CCc1nnc(N/N=C\c2ccc(OC(C)=O)c(OC)c2)n1N,43.1,-11.2,29.2,i,.
0.735,9.0,COCCn1c(C)cc(/C=C(\C#N)C(=O)OCC(=O)Nc2ccc(S(N)(=O)=O)cc2)c1C,.,.,-4.3,i,-10.3
0.686,2.8,COc1ccc(C(C(=O)NC(C)(C)C)N(CCC(C)C)C(=O)CCC(=O)Nc2cc(C)on2)cc1 (centres undefined),.,18.8*,5.6,i,1.5
0.805,11.6,COc1ccc2[nH]c3c(c2c1)CCN1C(=O)N([C@@H](C)C(=O)NC2CCN(Cc4ccccc4)CC2)C(=O)[C@]31C,-3.7,4.2,5.8,i,4.8
0.711,1.0,O=C(C1CCCN1S(=O)(=O)c1cccc2nsnc12)N1CCCCC1 (centres undefined),-17.5,-1.2,-6.7,i,5.1
0.755,0.4,CC(C)(C)c1ccc(C(=O)c2c[nH]c(C(=O)NCCc3ccccn3)c2)cc1,2.1,-308.1,0.1,i,0.0
0.675,-1.6,CCOc1ccc(/C=C2\SC(=S)N(CC(=O)N(CCO)C(C)(C)C)C2=O)cc1,-10.3,-4.1,-5.6,i,3.2
